# YjeE inh: inhibitors of E. coli YjeE (TsaE). P0AF67. purified YjeE, fluorescence polarisation of a bound ADP probe. Potency, µM. actives 0.05% (n = 71,000). AID 605; active = well fitted falling curve; inconclusive = weaker or top-dose-only fall, or a rising curve; inactive = flat or poorly fitted curve;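 note: top concentration of the series not given in the record; excess ADP was the control for the full effect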
#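 Fluorescence polarization of a BODIPY Texas Red–ADP probe (2 uM) bound to purified YjeE (10 uM) was read after 15 min room-temperature incubation with compounds. Loss of polarization marks inhibitors; ADP serves as titrated control.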
# PK Bst: modulators of Bacillus stearothermophilus pyruvate kinase. partly purified Bacillus stearothermophilus pyruvate kinase, luminescence ATP production; ribose 5-phosphate activator present at AC10. Potency, µM. actives 1.2% (n = 51,000); in the data active means potency below about 11 µM; inconclusive means mostly about 12 µM to 25 µM; inactive means weaker than that;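 the screen sought inhibitors and activators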;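 note: potency is the fitted concentration of half-maximal effect; scaled between full activation by ribose 5 phosphate and full inhibition by luteolin; about four in five hits inhibit and the cells do not say which; series up to 57 µM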
# Starred values were filed as active, the others as inactive; i = inactive; / = not tested or not shown. These rows are one share of the data; the hit share may differ from the screen's.
# A first look, 2 compounds:
SMILES,YjeE inh,PK Bst
Cc1c(Cl)cc(C(C)(C)C)c(O)c1Cc1c(C)c(Cl)cc(C(C)(C)C)c1O,i,/
CC(C)(O)c1nnn(-c2ccccc2)c1C(F)(F)F,i,>57

# This part in full, previewed entries included:
SMILES,YjeE inh,PK Bst
Cc1c(Cl)cc(C(C)(C)C)c(O)c1Cc1c(C)c(Cl)cc(C(C)(C)C)c1O,i,/
CC(C)(O)c1nnn(-c2ccccc2)c1C(F)(F)F,i,>57
CCOc1ccccc1Oc1c(C)oc2c(CN3CCN(C)CC3)c(O)ccc2c1=O,i,>57
CCCCC(NC(C)=O)c1nc2ccccc2n1CCC (stereo not drawn),i,>57
CC(=O)c1cccc(NC(=O)c2cc(C(C)C)on2)c1,i,/
CCOC(=O)N1CCC(N2C(=O)c3ccccc3C2Nc2cc(Cl)c(OC)cc2OC)CC1 (stereo not drawn),i,/
Cc1cc(=O)[nH]c2c1cnn2Cc1ccccc1,i,/
COc1ccccc1N1CCN(CCOc2c(OC)cccc2OC)CC1,/,>26
O=C1CCC(=O)N1OCCCCOc1ccccc1,i,>57
CCOC(=O)CSc1nnc(N)s1,i,>57
Cc1nnc(SCC(=O)Nc2ccc3c(c2)OCO3)o1,i,>57
COc1ccccc1NS(=O)(=O)c1ccc(NC(C)=O)cc1,i,>57
C=CCn1c(SCC(=O)NCc2ccc3c(c2)OCO3)nnc1C1COc2ccccc2O1 (stereo not drawn),i,>57
Cc1nc(NCc2ccco2)c2oc3ccccc3c2n1,i,/
COC(=O)[C@@]1(Cc2ccc(OC)cc2)[C@H]2c3cc(C(=O)N4CCCC4)n(CCCNc4ncc(C(F)(F)F)cc4Cl)c3C[C@H]2CN1C(=O)c1ccccc1,i,/
Cc1occc1C(=O)NC(C)c1ccc2c(c1)OCO2 (stereo not drawn),i,>57
COc1cc2cc(CN(Cc3nnnn3Cc3ccco3)C3CCCCC3)c(=O)[nH]c2cc1OC,i,>57
Clc1ccc2c(c1)C(N1CCNCC1)=Nc1ccccc1O2,i,>26
COc1ccccc1CNc1ccnc(-c2ccccc2OC)n1,i,/
CCC(C)NC(=O)c1cc(-c2ccc(OC)cc2)on1 (stereo not drawn),i,/
COc1cc(NC(=O)CSc2nc3ccccc3c(=O)n2C)ccc1NC(=O)c1ccco1,i,>57
COC(=O)[C@@]1(C)C[C@@H]1[C@@H](NC(=O)[C@@]1(C)C[C@@H]1[C@@H](NC(=O)[C@@]1(C)C[C@@H]1[C@@H](NC(=O)[C@@]1(C)C[C@@H]1[C@@H](NC(=O)OCc1ccccc1)c1ccccc1)c1ccccc1)c1ccccc1)c1ccccc1,i,/
Cc1c2c(nc3c(C(=O)NC4CCCCC4C)cnn13)CCCC2 (stereo not drawn),i,>57
CCC1CCCCN1C(=O)CSc1nnc(-c2ccc(Cl)cc2)o1 (stereo not drawn),i,/
Cc1cc(C)n(-c2nc3c(c(=O)[nH]c(=O)n3C)n2C)n1,i,>57
CCOC(=O)C1C(=O)CC(C)(O)C(C(=O)OCC)C1c1cccc(OC)c1 (stereo not drawn),i,/
COc1ccccc1-n1cnnc1SCC(=O)Nc1ncc(Cl)cc1Cl,i,>57
Cc1nc2cnc(N(C)C)nc2n(CCc2ccccc2)c1=O,i,/
CCOC(=O)c1cc2sccc2n1Cc1ccc(C#N)cc1,i,>57
O=C1CSC(c2ccccc2)N1CC12CC3CC(CC(O)(C3)C1)C2 (stereo not drawn),i,>57
O=C(CSc1nc2c(c(=O)n1-c1ccc(Cl)cc1)SCC2)NCc1ccco1,i,>57
Clc1ccc(-c2nnc(SCc3ccon3)o2)c(Cl)c1,i,10*
Cc1cnc(CNc2cc(-c3ccc4c(c3)OCO4)ncn2)cn1,i,/
CC1=C(C(=O)N(C)C)C(c2ccc(Cl)c(Cl)c2)NC(=O)N1 (stereo not drawn),i,>57
CC(=O)c1cc(C#N)c(SCCC(C)C)nc1C,i,>57
Cc1[nH]c2ccc(-c3nnc(SCC(=O)c4ccc(F)cc4)o3)cc2c1C,i,>57
Cn1c2c(c(=O)n(C)c1=O)C(NC(=O)c1cccs1)(C(F)(F)F)C(=O)N2 (stereo not drawn),/,>26
CCOC(=O)Cc1nnc(NC(=O)C(CC)Sc2nc(C)cc(=O)[nH]2)s1 (stereo not drawn),i,/
COCCNC(=O)c1ccc(CS(=O)(=O)c2ccc(Cl)cc2)o1,i,>57
FC(F)(F)c1cc(-c2ccco2)nc(-n2cnc3ccccc32)n1,i,>57
O=C(NC1=NCCS1)C1CC(=O)N(c2ccccc2)C1 (stereo not drawn),i,>57
O=C(NCCN1CCN(C(=O)NC2CCCCC2)CC1)NC1CCCCC1,i,>57
Cc1ccc(C)c(-n2c(SCC(=O)N3CCCC3)nnc2-c2ccccn2)c1,i,>57
O=C1c2ccccc2CC1Sc1nnc(-c2ccccn2)o1 (stereo not drawn),i,>57
Nc1nc(CSc2nnc(-c3cccc(F)c3)n2-c2ccccc2)nc(N2CCOCC2)n1,i,>57
CS(=O)(=O)N(CCc1ccccc1)CC(=O)N1CCc2ccccc2C1,i,>11
CC(OC(=O)c1cc2sccc2n1C)C(=O)NCc1cccs1 (stereo not drawn),i,>57
O=C(c1csnn1)N1CCC2(CCCN(Cc3ccccc3)C2)CC1,i,/

# Already shown: entries from further up.
SMILES,YjeE inh,PK Bst
Nc1nc(CSc2nnc(-c3cccc(F)c3)n2-c2ccccc2)nc(N2CCOCC2)n1,i,>57
CS(=O)(=O)N(CCc1ccccc1)CC(=O)N1CCc2ccccc2C1,i,>11
CC(OC(=O)c1cc2sccc2n1C)C(=O)NCc1cccs1 (stereo not drawn),i,>57

# The list goes on.
SMILES,YjeE inh,PK Bst
COc1ccccc1S(=O)Cc1ccc(C(=O)O)o1 (stereo not drawn),i,>57
CC1(C)Cc2ccccc2-c2nnc(-c3cccnc3)n21,i,>57
Nc1cccc(-n2nncc2-c2ccccc2)c1,i,>57
COc1ccc(Cn2nnnc2C(C(C)C)N2CCc3ccccc32)cc1 (stereo not drawn),i,>57
O=C(C1CCCCC1)N1CCN=C1SCc1cccnc1,i,/
COc1ccc(N(CN2C(=O)C3C4C=CC(C4)C3C2=O)C(=O)c2ccco2)cc1 (stereo not drawn),/,>26
COC(=O)[C@@H](N)Cc1ccc(O)c(O)c1,i,/
COc1cccc(C(=O)NCC(=O)n2nc(C)cc2C)c1,/,>26
CCOc1ccc(-c2noc(CCC(=O)O)n2)cc1,i,/
CCOC(=O)C1CCCN(CCCc2ccccc2)C1 (stereo not drawn),i,>57
COc1cc(OC)cc(OCC(O)Cn2cnc3cc(C)c(C)cc32)c1 (stereo not drawn),i,/
O=c1oc(-c2cccs2)nc2c1cnn2-c1ccccc1,i,/

# One compound at a time, from the list above. Screens in order: YjeE inh, PK Bst
# CCOc1ccc(-c2noc(CCC(=O)O)n2)cc1 reads i, /
# O=c1oc(-c2cccs2)nc2c1cnn2-c1ccccc1 reads i, /
# COc1ccc(N(CN2C(=O)C3C4C=CC(C4)C3C2=O)C(=O)c2ccco2)cc1 (stereo not drawn) reads /, >26

# Later entries.
SMILES,YjeE inh,PK Bst
O=C(CSc1nnc(CNC(=O)c2cccs2)o1)Nc1ccc2c(c1)OCO2,i,>57
COC(=O)c1ccccc1NS(=O)(=O)c1cn(C)c(=O)n(C)c1=O,i,/
CC1CCc2nn(CC(=O)NC3CCCC3)cc2C1 (stereo not drawn),i,/
CCOc1ccc(C(=S)N2CCOCC2)cc1,i,/
O=S(=O)(NC1CCc2ccccc21)c1ccc(S(=O)(=O)N2CCCC2)cc1 (stereo not drawn),i,>57
COCc1cc(C)nc(SCC(=O)Nc2cc3c(cc2C#N)OCO3)c1C#N,i,>57
Cc1cc(S(=O)(=O)N2CCCC2)ccc1OCC(=O)NCc1ccco1,i,>57
COc1ccc(NS(=O)(=O)c2ccc(I)cc2)cc1N1CCN(C)CC1,i,/
C=CC1CO1 (stereo not drawn),i,/
O=C(Nc1ccc(Br)cn1)c1ccc2nccnc2c1,i,/
Cc1[nH]c(=O)[nH]c(=O)c1CSc1nnc([C@@H](NC(=O)OC(C)(C)C)C(C)C)o1,i,>57
CN(C)c1ccc(P(=O)(OCc2ccccc2)C(O)c2ccncc2)cc1 (stereo not drawn),i,>57

# Structures from the list above containing two or more sulfur atoms (6):
SMILES,YjeE inh,PK Bst
CCOC(=O)CSc1nnc(N)s1,i,>57
O=C(CSc1nc2c(c(=O)n1-c1ccc(Cl)cc1)SCC2)NCc1ccco1,i,>57
CCOC(=O)Cc1nnc(NC(=O)C(CC)Sc2nc(C)cc(=O)[nH]2)s1 (stereo not drawn),i,/
CC(OC(=O)c1cc2sccc2n1C)C(=O)NCc1cccs1 (stereo not drawn),i,>57
O=C(CSc1nnc(CNC(=O)c2cccs2)o1)Nc1ccc2c(c1)OCO2,i,>57
O=S(=O)(NC1CCc2ccccc21)c1ccc(S(=O)(=O)N2CCCC2)cc1 (stereo not drawn),i,>57

# Additional entries follow:
SMILES,YjeE inh,PK Bst
O=S1(=O)N=C(Oc2ccccc2)c2ccccc21,i,/
COc1ccccc1C(=O)Nc1c2c(nn1-c1cccc(C)c1C)CS(=O)C2 (stereo not drawn),i,>57
O=c1nc2c(-c3ccccc3F)n[nH]n2c2ccccc12,i,>57
CCOC(=O)CCc1c(C)c2ccc(OC(C)C(=O)OCC)c(C)c2oc1=O (stereo not drawn),i,>57
O=C(CSC1=NCCS1)NC1CCCCC1,i,>57
NC(N)=NCCCC(=O)O,i,/
O=C(Nc1cnccn1)c1ccncc1,i,i
COC(=O)N1CCC2(CCCN(c3ccc(-c4ccccc4)cc3)C2)CC1,i,/
CCN1CCN(C(c2cccs2)C(C)NC(=O)c2ccccc2F)CC1 (stereo not drawn),i,>57
Clc1cccc(-c2nc3nc4ccccc4nc3n2Cc2ccco2)c1,i,>57
CSc1ccccc1-n1nnnc1SCc1ccccc1,i,>57
CC(=O)c1cccc(NC(=O)COc2ccc(S(=O)(=O)N3CCCCC3)cc2)c1,i,>57
CCCCCOC(=O)C1C2C=CC3(CN(c4ccccc4C)C(=O)C13)O2 (stereo not drawn),i,>57
NNC(=O)CCSc1ccccc1,i,/
Cn1cc(/C=N/n2cnc3sc4c(c3c2=O)CCCC4)c2ccccc21,i,>57
CC(=O)CCc1ccc(OCCCCn2cncn2)cc1,i,>57
Cc1ccc(-n2nc(C)c3c2OC(N)=C(C#N)C3c2cccs2)cc1 (stereo not drawn),i,/
CCOc1ccc(C(=O)c2ccncc2)cc1,i,>57
CCSc1nnc(N2C(=O)CC(c3ccsc3)C3=C2CC(C)(C)CC3=O)s1 (stereo not drawn),i,/
CCC(=O)Nc1cccc(NC(=O)CSc2nnnn2C2CCCC2)c1,i,>57
Cc1csc(/C(C#N)=N/O)n1,i,>57
CCOC(=O)C1=C(C)NC(=O)N[C@@H]1c1coc2cc(C)cc(C)c2c1=O,i,/
COc1ccc(C2C(C#N)=C(N)Oc3n[nH]c(-c4ccccn4)c32)c(OC)c1OC (stereo not drawn),i,>57
COC(=O)[C@@H]1C[C@H]1[C@@H](NC(=O)c1cc(C)on1)c1ccccc1,i,/
CCCc1cc(=O)oc2cc(C)cc(OCC(=O)O)c12,i,>57
COc1ccc(-n2nnnc2S(=O)(=O)CC(=O)N2CCCCC2)cc1,i,/
CC(/C=N/n1cnnc1)=C\c1ccco1,i,>57
O=C(CSc1ncccc1-c1nc2ccccc2[nH]1)NCc1ccco1,i,/
COc1ccc(C2(C(=O)Nc3ccc(C(=O)O)cc3)CCOCC2)cc1,i,>57
Cc1cc(S(=O)(=O)N2CCN(Cc3ccccc3)CC2)c(C)s1,i,/
Cc1ccc(OCCCC(=O)N2CCOCC2)c(C)c1,i,>57
CCOC(=O)CN1C2=NCCN2c2ccccc21,i,>57
O=C(NCc1ccccc1)C1CCCN1S(=O)(=O)c1cccc2cccnc12 (stereo not drawn),i,/
Cc1noc(C)c1-c1cc(NCCN2CCOCC2)ncn1,i,/
CCSc1nc2ccccc2n1CC(=O)N1CCCCC1,i,>57
COc1ccccc1NC(=O)Cn1cnc2c(cnn2-c2ccc(C)c(C)c2)c1=O,i,>57
CCN(CC)S(=O)(=O)c1ccc(Cl)c(C(=O)NC2CCCC2)c1,i,/
O=C(C1CCN(Cc2ccc(OCc3ccccc3)cc2)CC1)N1CCCC1,i,/
O=CNCC(=O)NC1CCCCCC1,i,>57
CC1=C(Sc2ccccn2)C(=O)NC(C)(C)C1,i,>57
COC(=O)CCN(C1CCCCC1)S(=O)(=O)c1ccc(S(=O)(=O)N2CCCCC2)cc1,i,>57
COc1cccc(CC(C(=O)Nc2cc(C)ccc2C)c2nn[nH]n2)c1OC (stereo not drawn),i,>57
O=C1c2ccccc2C(=O)N1CCCCn1c(=O)oc2ccccc21,i,>57
Cc1nc2ccccc2n2c(O)c(CC(=O)O)cc12,i,/
COc1cccc(Cn2c(=O)c(-c3cccs3)nc3cnc(OCc4ccccc4)nc32)c1,i,/
CCn1c(SCCOc2ccc(OC)cc2)nnc1C(CO)NC(=O)c1ccc(OC)cc1 (stereo not drawn),i,>57
Cn1c(=O)c2cc(S(=O)(=O)NC(C(=O)N3CCCCCC3)c3ccccc3)ccc2n(C)c1=O (stereo not drawn),i,/
CNC(=O)[C@@]1(Cc2ccccc2)C=C[C@@H](C)N1C(=O)OC,i,/
CCc1ccc(C2CC(c3ccccc3C)n3nc(N)nc3N2)cc1 (stereo not drawn),i,/
CCCCNC(=O)OC1CCS(=O)(=O)C1 (stereo not drawn),i,>57
N#CC[n+]1cc(-c2ccc(Cl)cc2)n2c1CCC2,i,>57
CCCCC=O,i,/
COc1ccc(OC)c(NC(=O)CCN2CCCCC2)c1,i,>57
CCCN=C(N)NCCC[C@H](N)C(=O)O,i,/
COc1cccc(N(CC(=O)Nc2cccc(N(C)S(C)(=O)=O)c2)S(C)(=O)=O)c1,i,>57
O=C(NCCCN1CCc2ccccc2C1)C1CCN(c2nnc(-n3cccc3)s2)CC1,i,/
